EPAC2 antag = Validation qHTS for antagonist of cAMP-regulated guanine nucleotide exchange factor 4 (EPAC2) | Rap guanine nucleotide exchange factor 4 (Homo sapiens), Q8WZA2 | EPAC2 Rap1B BODIPY-GDP exchange, fluorescence | Potency, µM (doses to about 112 µM), for the others: at the top dose activity, negative = inhibition, actives largely listed as inhibitors | 1.7% of 16,000 active | AID 1645886, 2021; active = well fitted inhibition curve with a large enough effect; inconclusive = small, poorly fitted or top-dose-only effect; inactive = no such curve, though single readings can be large or run the other way;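 also: 100% = activation by cAMP agonist control; nearly all actives have a fitted effect of over 40% in size; the record reuses the description of the EPAC1 agonist screen; inactives centre near -10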
Target sequence (Q8WZA2 whole entry, looked up): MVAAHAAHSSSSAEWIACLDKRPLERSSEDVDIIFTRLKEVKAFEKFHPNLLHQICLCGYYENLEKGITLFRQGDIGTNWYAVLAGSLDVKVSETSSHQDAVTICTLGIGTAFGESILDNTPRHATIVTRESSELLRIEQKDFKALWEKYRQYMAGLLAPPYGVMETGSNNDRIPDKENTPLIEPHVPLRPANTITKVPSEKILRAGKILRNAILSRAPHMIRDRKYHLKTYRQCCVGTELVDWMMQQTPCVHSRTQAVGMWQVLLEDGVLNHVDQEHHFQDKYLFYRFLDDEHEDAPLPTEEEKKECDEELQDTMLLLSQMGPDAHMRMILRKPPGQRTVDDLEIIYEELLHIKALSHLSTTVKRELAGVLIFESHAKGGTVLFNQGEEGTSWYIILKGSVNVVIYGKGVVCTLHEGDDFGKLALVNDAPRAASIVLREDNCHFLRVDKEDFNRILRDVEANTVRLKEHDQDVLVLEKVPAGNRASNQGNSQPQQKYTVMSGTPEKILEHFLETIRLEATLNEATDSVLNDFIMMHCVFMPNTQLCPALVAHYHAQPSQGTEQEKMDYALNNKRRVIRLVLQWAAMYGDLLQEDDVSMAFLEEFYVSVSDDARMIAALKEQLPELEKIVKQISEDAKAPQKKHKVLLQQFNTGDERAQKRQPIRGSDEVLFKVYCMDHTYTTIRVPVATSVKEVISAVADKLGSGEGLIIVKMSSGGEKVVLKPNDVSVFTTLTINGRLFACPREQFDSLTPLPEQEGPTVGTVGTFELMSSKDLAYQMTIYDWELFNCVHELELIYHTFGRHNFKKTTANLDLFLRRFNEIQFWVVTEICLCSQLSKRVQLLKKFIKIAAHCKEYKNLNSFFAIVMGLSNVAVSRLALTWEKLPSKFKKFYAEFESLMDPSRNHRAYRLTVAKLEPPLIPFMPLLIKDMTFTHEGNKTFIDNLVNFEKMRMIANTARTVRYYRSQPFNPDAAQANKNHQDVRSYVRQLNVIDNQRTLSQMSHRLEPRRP
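Fluorescent exchange read-out: 100 nM EPAC2 with 250 nM RAP1B–BODIPY-GDP and 50 uM GDP; BODIPY-GDP release lowers fluorescence. Read at 480/540 nm every 5 min for 30 min at room temperature; normalized to 6.5 mM cAMP.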
Numbers without * were called inactive; ? = inconclusive; & = joins results of further samples; [ ] = remark or other dose. Potency is read from the fitted curve at half-maximal effect. This is a subset; the hit share may differ from the screen's.

SMILES	EPAC2 antag
O=c1oc2ccccc2c(O)c1Cc1c(O)c2ccccc2oc1=O	9%[56.6 µM]
CNC(=O)O/N=C(/C)SC	-12%
CC1O[C@@H](OC2CC(O)[C@@]3(CO)C4C(O)C[C@@]5(C)C(C6=CC(=O)OC6)CC[C@]5(O)C4CC[C@]3(O)C2)C(O)C(O)C1O (stereo not given in full)	-3%
CCCCC[C@@H](/C=C/C=C\C/C=C\C/C=C\CCCC(=O)O)OO	-4%[1.17 µM]
CCC(Sc1ccccc1)C(=O)OC1CC2CCC(C1)N2C (stereo not given)	-11%
C=CCOC(Cn1ccnc1)c1ccc(Cl)cc1Cl (stereo not given)	-36%
N[C@H](CCP(=O)(O)O)C(=O)O	-26%&-20%
CCC1CN2CCC1CC2C(O)c1ccnc2ccccc12 (stereo not given)	-7%
CN1CC[C@@]2(CCCN(C(=O)Oc3ccccc3)C2)C1	-31%
CCN(Cc1ccc(Cl)nc1)/C(=C/[N+](=O)[O-])NC	12%
CC(=O)[C@H]1CCC2C3CC[C@H]4C[C@H](O)CC[C@]4(C)C3CC[C@@]21C (stereo not given in full)	?
CCNC1(c2cccs2)CCCCC1=O (stereo not given)	-15%[56.6 µM]
COc1cc2c(cc1OC)[C@@H]1C(=O)c3ccc4c(c3OC1CO2)CC(C(C)C)O4 (stereo not given in full)	?
C#C[C@]1(O)CC[C@H]2[C@@H]3CCC4=CC(=O)CC[C@]4(C)[C@H]3CC[C@@]21C	-11%&22%
c1ccc(CCN2CCCCC2)cc1	2%
COc1ccn(C)c(=O)c1C#N	-13%
C[C@]12CC[C@H]3[C@@H](CCC4=CC(=O)CC[C@@]43C)[C@@H]1CC[C@H]2O	-37%
CCC12C=CCN3CCC4(c5ccc(OC)cc5N(C)C4[C@@](O)(C(=O)OC)C1OC(C)=O)C32 (stereo not given in full)	-11%
O=C(O)COc1ccccc1	-21%
CN1CCCCC1c1cccnc1 (stereo not given)	-6%
C[C@H]1O[C@H](O[C@H]2[C@H](O)[C@@H](O)[C@@H](O)[C@H](O)[C@@H]2O)[C@@H](N)C[C@@H]1NC(=N)C(=O)O	56%
COP(=O)(OC)OC=C(Cl)Cl	0%
CC(C)NCC(O)c1ccc([N+](=O)[O-])cc1 (stereo not given)	-15%
O=C(Oc1ccccc1)N1CCC[C@@]2(CCN(Cc3nccs3)C2)C1	-13%

As a short view, part of the list above:
SMILES	EPAC2 antag
COP(=O)(OC)OC=C(Cl)Cl	0%
CC(C)NCC(O)c1ccc([N+](=O)[O-])cc1 (stereo not given)	-15%
O=C(Oc1ccccc1)N1CCC[C@@]2(CCN(Cc3nccs3)C2)C1	-13%

Later entries.
SMILES	EPAC2 antag
COc1cc(C2c3cc4c(c(O)c3CC3COC(=O)C32)OCO4)cc(OC)c1OC (stereo not given)	-8%
CCCN1CCc2cc(O)cc3c2[C@H]1Cc1ccc(O)c(O)c1-3	30%
CCN1C[C@]2(COC(=O)c3ccccc3N3C(=O)CC(C)C3=O)CC[C@H](OC)[C@@]34C5C[C@@H]6[C@@H](OC)C[C@@](O)(C5[C@H]6OC)[C@](O)([C@@H](OC)C23)[C@@H]14 (stereo not given in full)	-10%
CC(C)C[C@H]1C(=O)N2CCCC2[C@]2(O)O[C@](NC(=O)[C@@H]3C=C4c5cccc6[nH]cc(c56)CC4N(C)C3)(C(C)C)C(=O)N12 (stereo not given in full)	19%&20%
C[C@]12CCC(=O)C[C@@H]1CC[C@@H]1[C@@H]2CC[C@@]2(C)[C@H]1CC[C@]2(C)O	32%
CC1CC(Cl)CCC1C(=O)OC(C)(C)C (stereo not given)	-2%
CC1=C2CC3C(CC=C4C[C@@H](O)CC[C@@]43C)[C@@H]2CC[C@]12O[C@@H]1C[C@H](C)CN[C@H]1[C@H]2C (stereo not given in full)	-4%[151 µM]
Oc1c(Br)cc(Br)cc1Br	-21%
O=C1OC(c2ccc(O)c(S(=O)(=O)O)c2)(c2ccc(O)c(S(=O)(=O)O)c2)c2c(Br)c(Br)c(Br)c(Br)c21	?
C[C@]12CC[C@@H]3c4ccc(OC(=O)N(CCCl)CCCl)cc4CC[C@H]3[C@@H]1CC[C@@H]2OP(=O)(O)O	29%&-1%
O=C1CSC(c2ccccc2Cl)c2cc(Cl)ccc2N1 (stereo not given)	?
NC[C@@H](CC(=O)O)c1ccc(Cl)cc1	-18%
CC[C@@H](CO)NC(=O)[C@H]1C=C2c3cccc4[nH]cc(c34)C[C@H]2N(C)C1	0%
c1csc(CN2CCC3(CCNCC3)CC2)n1	-20%
O=c1cccc2n1CC1CC2CN2CCCCC12 (stereo not given)	-1%
COc1ccc2[nH]c3c(c2c1)CCNC3C (stereo not given)	-26%
O=C1C=CC(=O)c2c(O)cccc21	-22%
O=C1C=CC[C@@H]2[C@H]3CCCN4CCC[C@@H](CN12)[C@@H]34	57%
CC(C)NP(=O)(NC(C)C)OP(=O)(NC(C)C)NC(C)C	-12%
Nc1ccc(Cl)cc1N	26%[239 µM]
c1ccc([C@H]2CNCc3ccccc32)cc1	-19%
O=C(O)Cc1ccccc1	5%
COc1ccc(OC)c(C(O)C(C)N)c1 (stereo not given)	-11%
CC1(C)C(O)CC(O)[C@]2(C)C1CC(O)[C@]1(C)C2CC[C@@]2(C)C(c3ccoc3)OC(=O)C3O[C@]312 (stereo not given in full)	-6%
CN(C)[C@@H]1C(=O)C(C(N)=O)=C(O)[C@@]2(O)C(=O)C3=C(O)c4c(O)cccc4[C@@](C)(O)[C@H]3[C@H](O)[C@@H]12	193%[activator][56.6 µM]
C#C[C@]1(OC(=O)CCCCCC)CC[C@H]2[C@@H]3CCC4=CC(=O)CC[C@@H]4[C@H]3CC[C@@]21C	29%
CCN[C@@H](C)Cc1cccc(C(F)(F)F)c1	17%[239 µM]
C[C@]12CC[C@@H]3c4ccc(OC(=O)N(CCCl)CCCl)cc4CC[C@H]3[C@@H]1CC[C@@H]2O	15%
CC1C(=O)OC2CCN3CC=C(COC(=O)[C@](C)(O)[C@]1(C)O)C23 (stereo not given in full)	-8%
CCCC(C)(COC(N)=O)COC(=O)NC(C)C (stereo not given)	-14%&13%&-17%
CN1C[C@@H](C(=O)N[C@@]2(C)O[C@]3(O)C4CCCN4C(=O)[C@@H](Cc4ccccc4)N3C2=O)C=C2c3cccc4[nH]cc(c34)C[C@@H]21 (stereo not given in full)	42%[activator]
CCCOC(=O)c1cc2c(cn1)[nH]c1ccccc12	-31%
CCCC(C)(COC(N)=O)COC(N)=O	-29%
CCCN1CCO[C@@H]2c3cc(O)ccc3OC[C@H]21	-2%&-2%&-7%&-23%
CC(C)(O)C1C2OC(=O)C1[C@]1(O)CC3O[C@@]34C(=O)OC2[C@@]14C (stereo not given in full)	-9%
Cc1ccc2c(c1)C1CN(C)CCC1N2 (stereo not given)	-5%
CC(C)c1c(CN(C)C(C)Cc2ccccc2)n(C)n(-c2ccccc2)c1=O (stereo not given)	3%[56.6 µM]
CCC(=O)O[C@@](Cc1ccccc1)(c1ccccc1)[C@@H](C)CN(C)C	-14%[56.6 µM]
COc1ccc(OC)c(C[C@H](C)N)c1	13%[239 µM]
COc1ccc2c(c1OC)C(=O)OC2C1c2cc3c(cc2CCN1C)OCO3 (stereo not given)	-18%&-7%&-19%
S=C(S)N1CCNCC1	-11%
CNC(=O)NC(O)C(Cl)(Cl)Cl (stereo not given)	5%
CC(Cc1ccccc1)NCCn1cnc2c1c(=O)n(C)c(=O)n2C (stereo not given)	-16%[239 µM]
C=CCN1CCc2cccc3c2C1Cc1ccc(O)c(O)c1-3 (stereo not given)	-14%
C[C@@H]1C[C@@H](O)[C@@]2(O)[C@]13CC(=O)OC[C@]2(C)[C@@](C)(O)C(=O)C3	3%
CCOc1cc(C=O)ccc1O	15%
O=C1CC[C@@]2(O)C3Cc4ccc(O)c5c4C2(CCN3CC2CC2)[C@H]1O5 (stereo not given in full)	3%
C[C@H]1C(=O)O[C@H]2CCN3CC=C(COC(=O)[C@](C)(O)[C@@]1(C)O)C23 (stereo not given in full)	-15%

Rewritten field by field: entries from further up
> S=C(S)N1CCNCC1
  EPAC2 antag: -11%

> CNC(=O)NC(O)C(Cl)(Cl)Cl (stereo not given)
  EPAC2 antag: 5%

> CC(Cc1ccccc1)NCCn1cnc2c1c(=O)n(C)c(=O)n2C (stereo not given)
  EPAC2 antag: -16%[239 µM]

> C=CCN1CCc2cccc3c2C1Cc1ccc(O)c(O)c1-3 (stereo not given)
  EPAC2 antag: -14%

The listing continues.
SMILES	EPAC2 antag
O=C1NCN(c2ccccc2)C12CCN(CCCOc1ccc(F)cc1)CC2	-17%&-5%&-16%
COc1cc2c(cc1O)C[C@H]1c3c(cc(OC)c(O)c3-2)CCN1C	-9%
CCC(C(N)=O)N1CCCC1=O (stereo not given)	0%
CCN(CC)CCN1C(=O)CN=C(c2ccccc2F)c2cc(Cl)ccc21	-17%
COC[C@H]1OC(=O)c2coc3c2[C@@]1(C)C1=C(C3=O)[C@H]2CCC(=O)[C@@]2(C)C[C@H]1OC(C)=O	0%[0.0184 µM]
CCCCCc1cc(O)c2c(c1)OC(C)(C)[C@@H]1CCC(C)=C[C@@H]21	?
C=C(C)C1CNC(C(=O)O)C1CC(=O)O (stereo not given)	-4%
O=C(O)/C=C/CO	-3%&-10%
CC(C)(C)NCC(O)c1ccccc1Cl (stereo not given)	-5%&21%
CC(C)C[C@H]1C(=O)N2CCC[C@H]2[C@]2(O)O[C@](NC(=O)[C@@H]3C[C@@H]4c5cccc6[nH]cc(c56)C[C@H]4N(C)C3)(C(C)C)C(=O)N12	21%
NCCc1ccc(S(=O)(=O)F)cc1	?
CC[C@H]1C2CC3[C@@H]4N(C)c5ccccc5[C@]45C[C@@H](C2[C@H]5O)N3[C@@H]1O (stereo not given in full)	-8%
O=C(c1cnccn1)N1CCC2(CC1)CN(Cc1ccncc1)C2	-11%
CCN1C[C@@]2(COC(=O)c3ccccc3N3C(=O)CC(C)C3=O)CC[C@H](OC)[C@]34C5C[C@@H]6[C@@H](OC)C[C@@](O)(C5[C@H]6OC)[C@@](O)(C13)[C@@H](OC)C24 (stereo not given in full)	-17%
C[C@H](N)CN1CCc2ccc(Br)cc21	0%
Cc1nnc2n1-c1sc(Br)cc1C(c1ccccc1Cl)=NC2	12%
CCCN1CCC[C@@H]2Cc3[nH]ncc3C[C@H]21	-5%&4%&2%&-20%
CC1CC[C@@]2(OC1)OC1C(O)C3C4CC[C@H]5CC(O[C@@H]6O[C@@H](CO)[C@H](OC7OC(CO)C(O)C(OC8OCC(O)C(O)[C@H]8O)[C@@H]7O[C@@H]7OC(CO)[C@H](O)[C@@H](O[C@@H]8OC(CO)C(O)C(O)C8O)C7O)C(O)C6O)C(O)C[C@]5(C)C4CC[C@]3(C)C1C2C (stereo not given in full)	-30%
COc1ccc2c(c1O)-c1cc(O)cc3c1[C@@H](C2)N(C)CC3	-5%
CCC(=O)O[C@H]1[C@@H](N2CCCCC2)C[C@H]2[C@@H]3CC[C@H]4C[C@H](OC(C)=O)[C@@H](N5CCCCC5)C[C@]4(C)[C@H]3CC[C@@]21C	-14%
CC(=O)OC1CC(OC(C)=O)[C@]2(C)C(CC(OC(C)=O)[C@]3(C)C2CC[C@@]2(C)C(c4ccoc4)C[C@H]4O[C@]432)C1(C)C (stereo not given in full)	-13%
O=C(Nc1cccc(F)c1)N1CC[C@@]2(CCCN(C(=O)Oc3ccccc3)C2)C1	-24%
CC(C(=O)OC1CC2CCC(C1)N2C)c1ccc(Br)cc1 (stereo not given)	-19%
CCS(=O)(=O)C(C)(C)S(=O)(=O)CC	7%
CN(C)[C@@H]1C(=O)C(C(N)=O)=C(O)[C@@]2(O)C(=O)C3=C(O)c4c(O)cccc4[C@@](C)(O)[C@H]3C[C@@H]12	5%[56.6 µM]
COc1ccc(OC)c(CC(C)N)c1 (stereo not given)	0%[239 µM]
COc1ccc(CN2CCNCC2)c(OC)c1OC	12%[56.6 µM]
CO[C@H]1[C@@H](O)C[C@H](O[C@H]2[C@@H](O)C[C@H](O[C@H]3[C@@H](O)C[C@H](O[C@H]4CC[C@@]5(C)[C@H](CC[C@@H]6[C@@H]5C[C@@H](O)[C@]5(C)[C@@H](C7=CC(=O)OC7)CC[C@]65O)C4)O[C@@H]3C)O[C@@H]2C)O[C@@H]1C	-9%
